Screening data from PubChem BioAssay.
Rango-impB inh = Rango-importin beta binding inhibition; Q14974; Rango CFP/YFP FRET sensor + importin beta, 45 min; Potency, µM (highest dose often 92.2 µM), for inactives: top-dose inhibition of complex formation; 340,000 tested, 0.031% active; AID 540263; active = rising FRET ratio curve, often small or poorly fitted; inconclusive = mostly compound fluorescence or quenching in the first reads; inactive = flat curves in all reads;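 further: potency means the concentration at half of the fitted maximal effect; 0% = DMSO wells and 100% = buffer wells lacking importin beta; nearly all actives have a fitted effect of over 15% in size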
Target sequence (Q14974 whole entry, looked up): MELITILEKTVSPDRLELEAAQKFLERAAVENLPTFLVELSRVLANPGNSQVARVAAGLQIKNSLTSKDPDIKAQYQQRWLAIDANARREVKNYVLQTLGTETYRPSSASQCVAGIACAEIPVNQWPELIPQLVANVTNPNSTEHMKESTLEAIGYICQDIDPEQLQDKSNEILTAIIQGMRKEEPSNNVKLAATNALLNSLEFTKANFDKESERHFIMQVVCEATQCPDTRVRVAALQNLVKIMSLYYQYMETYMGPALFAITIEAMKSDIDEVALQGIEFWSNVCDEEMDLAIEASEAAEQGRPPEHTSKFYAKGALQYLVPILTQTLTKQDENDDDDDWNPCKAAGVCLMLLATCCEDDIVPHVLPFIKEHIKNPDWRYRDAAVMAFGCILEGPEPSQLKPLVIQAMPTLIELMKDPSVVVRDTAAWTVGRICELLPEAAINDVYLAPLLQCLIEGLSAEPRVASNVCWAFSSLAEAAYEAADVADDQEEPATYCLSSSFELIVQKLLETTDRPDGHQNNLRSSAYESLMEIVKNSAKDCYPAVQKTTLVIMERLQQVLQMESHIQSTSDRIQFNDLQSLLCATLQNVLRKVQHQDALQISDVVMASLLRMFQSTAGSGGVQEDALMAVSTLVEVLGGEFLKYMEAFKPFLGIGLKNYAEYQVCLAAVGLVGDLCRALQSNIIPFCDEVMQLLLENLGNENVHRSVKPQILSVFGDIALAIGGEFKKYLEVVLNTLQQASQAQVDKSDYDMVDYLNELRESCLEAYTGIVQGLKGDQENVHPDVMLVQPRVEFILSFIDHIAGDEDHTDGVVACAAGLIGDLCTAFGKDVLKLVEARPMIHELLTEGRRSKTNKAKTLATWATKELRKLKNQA
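Inhibition scored from the CFP 486 nm/YFP 530 nm FRET ratio 45 min after adding 0.125 microM importin beta to 50 nM Rango biosensor preincubated 5 min with compound (room temperature, PBS with DTT, Tween-20, BSA). No-importin wells as positive control.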
GLA inh pH 4.5 = blocks human alpha-galactosidase A at pH 4.5; purified enzyme, 4-MU-alpha-Gal fluorescence, pH 4.5; activity change, negative = inhibition, % at 105 µM; 230,000 tested, under 10 active; AID 1467; inconclusive = small, poorly fitted or top-dose-only inhibition, or a rising curve; inactive = flat fitted curve, though single readings scatter; no compound was filed as active;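 further: 0% = full activity with enzyme and -100% = basal without enzyme; dose as in the result columns while the protocol names 77 µM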
Rango dissoc inh = prevents RanGTP from dissociating the Rango-importin beta complex; Potency, µM (doses to about 46.1 µM), for inactives: at the top dose activity change, negative = inhibition; O95149+P62826; Biochemical FRET Rango-importin beta, RanGTP-induced dissociation; AID 540253; 340,000 tested, 0.071% active; active means falling FRET ratio curve, often poorly fitted, with flat reads before Ran was added; inconclusive means other falling curves, or compound fluorescence or quenching; inactive means flat or rising ratio curve;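 further: potency means the concentration at half of the fitted maximal effect; % of control where 0% means no effect; nearly all actives have a fitted effect of over 45% in size; -100% = wells without RanGTP and RCC1; the record marks most hits as doubtful in a second field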
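Rango/importin beta premix (0.1/0.25 uM final), PBS + 1 mM DTT + 0.02% Tween-20 + 0.1% BSA; cpd 5 min RT; FRET pre-read; + RanGTP-RCC1 (0.6 uM Ran, 2 mM GTP, 0.2 uM RCC1); 45 min RT; FRET post-read, ex 430, em 486/530 nm.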
miR-21 FLuc = raises the signal of a miR-21 reporter; Potency, µM (highest dose often 38.3 µM), for the others: at the top dose reporter change, positive = more light; AID 2288; HeLa miR-21 FLuc reporter, luciferase, 48 h; 340,000 tested, under 10 active; active = well fitted rising curve with a large enough effect; inconclusive = small, poorly fitted or top-dose-only effect; inactive = no such curve, though single readings can be large or run the other way;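 further: % of control where 0% means no effect; miR-21 action dims this reporter so a rising signal means less miR-21 action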
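HeLa cells stably expressing CMV-driven firefly luciferase with a downstream miR-21 binding sequence, endogenously expressing miR-21, were treated with titrations (up to about 40uM final) for 48 hours at 37 degree Celsius. Luciferase luminescence was read after lysis.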
* marks the source's active call; other numbers are inactive results; ? = inconclusive; · = not tested or not shown; & = joins results of further samples. Only part of the results is shown. The share of hits here may be higher or lower than overall.

Rango-impB inh	GLA inh pH 4.5	Rango dissoc inh	SMILES	miR-21 FLuc
0.8%	·	9%	O=C(c1ccc(C(F)(F)F)cc1)C1CCCN(C(=O)Cn2cnnn2)C1 (centres undefined)	1%
0.9%	-7	2%	COC(=O)c1ccccc1S(=O)(=O)N(CCCN1CCOCC1)Cc1cccs1	-13%
1.1%	·	18%	C=CCOc1ccc(/C=C/C(=O)OCC(=O)NCCc2ccccc2)cc1	·
?	5	-25%	COc1cccc2c(=S)c(CCC(C)=O)c(C)[nH]c12	-13%
-0.2%	5	10%	Cc1cc(C)cc(OCCCC(=O)O)c1	-6%
-1.5%	·	14%	O=c1c2ccccc2oc2cc(-c3ccc(CN4CCOCC4)cc3)ccc12	·
4.1%	·	24%	CCc1cc(CNC(=O)c2ccc(OC3CCN(C(C)=O)CC3)c(OC)c2)on1	-3%
2.7%	3	-12%	Cc1sc2nc(COC(=O)c3ccc(O)cc3)[nH]c(=O)c2c1C	-19%
5.5%	-2	1%	CC(C)SC1=NC(C)(C)C=C(/C=C/c2c(Cl)cccc2Cl)N1	1%
-0.1%	8	19%	CCn1cc(Br)c(C(=O)Nc2ccc(F)c(Cl)c2)n1	-33%
-1.5%	-2	-11%	CSc1ccc(/C=N/NC(=O)CNc2cccc3ccccc23)cc1	-7%
-0.5%	-11	-3%	COc1ccc2nc(SCC(N)=O)[nH]c2c1	-6%
0.5%	·	-1%	Cc1cccc(OCC(=O)NCCCNC(=O)c2cccnc2)c1	7%
0.0%	4	2%	COc1ccc(-n2c(COc3ccc4c(c3)OCO4)nnc2SCC(=O)O)cc1	-3%
-1.5%	2	0%	CC(C)(C)c1ccc(S(=O)(=O)NC(Cc2ccccc2)C(=O)O)cc1 (centres undefined)	-7%
?	3	?	COC(=O)c1cc(Cl)c(NC(=O)/C=C/c2ccc(OC)c(OC)c2)cc1OC	14%
3.8%	·	-12%	CCN(c1ccccc1)S(=O)(=O)c1c[nH]c2ccc([N+](=O)[O-])cc12	11%
1.8%	0	-20%	Cc1[nH]c2ccccc2c1C(c1ccncc1)N1CCN(c2ccccn2)CC1 (centres undefined)	-1%
0.3%	·	1%	Cc1cc(OCC(=O)N[C@@H](Cc2c[nH]c3ccccc23)C(=O)O)c2c(C)c(C)c(=O)oc2c1	3%
-3.5%	2	1%	O=C1S/C(=C\c2ccccn2)C(=O)N1Cc1ccccc1F	-12%

Brought forward from above: six entries, followed by the next part.
Rango-impB inh	GLA inh pH 4.5	Rango dissoc inh	SMILES	miR-21 FLuc
-1.5%	2	0%	CC(C)(C)c1ccc(S(=O)(=O)NC(Cc2ccccc2)C(=O)O)cc1 (centres undefined)	-7%
?	3	?	COC(=O)c1cc(Cl)c(NC(=O)/C=C/c2ccc(OC)c(OC)c2)cc1OC	14%
3.8%	·	-12%	CCN(c1ccccc1)S(=O)(=O)c1c[nH]c2ccc([N+](=O)[O-])cc12	11%
1.8%	0	-20%	Cc1[nH]c2ccccc2c1C(c1ccncc1)N1CCN(c2ccccn2)CC1 (centres undefined)	-1%
0.3%	·	1%	Cc1cc(OCC(=O)N[C@@H](Cc2c[nH]c3ccccc23)C(=O)O)c2c(C)c(C)c(=O)oc2c1	3%
-3.5%	2	1%	O=C1S/C(=C\c2ccccn2)C(=O)N1Cc1ccccc1F	-12%
-1.6%	·	13%	CCOc1c2ccccc2nn1CCO	·
1.2%	-3	-1%	COc1ccc(-c2nc(O)c3cnccn23)cc1	-3%
-2.9%	1	-1%	CCCNC(=O)c1sc2c(c1C(=O)Nc1ccccn1)CCCC2	6%
1.2%	·	0%	CC(=O)Nc1cc2c(cc1Cl)-c1ccc(F)cc1C2O (centres undefined)	·
-1.0%	-3	-12%	CC(C)C[C@@H](N)c1nnc(SCC(=O)c2ccc(Cl)cc2)o1	-10%
-0.3%	·	-9%	Cc1cc(C)n(S(=O)(=O)c2ccc3oc(=O)ccc3c2)n1	-2%
·	2&2	·	COC(=O)CCC(=O)OC1(C)C(=O)C2=CN(CC(C)C)C(c3ccc(OC)cc3)=CC2=C(Br)C1=O (centres undefined)	0%
9.8%	-5	1%	COc1ccc(N2C(=O)C(Cl)=C(Nc3ccccc3OC)C2=O)cc1	-8%
3.0%	2	-11%	C/C(=N\Nc1nc2ccccc2[nH]1)c1cc2ccccc2o1	-28%
-2.2%	-2	4%	O=C(Nc1ccc(Cl)cc1)N(C1=NCCC1)c1ccc(OC(F)F)cc1	-37%
8.8%	·	-6%	O=C(CN(Cc1ccccc1)C(=O)CCC(=O)Nc1nccs1)NCc1ccc(F)cc1	0%
-4.0%	-2	-7%	CCOc1cc(N2CCOCC2)c(OCC)cc1NC(=O)c1cccc(N(C)C)c1	1%
-0.8%	8	31%	Cc1cc(NC(=O)CSc2nnc(-c3c[nH]c4ccccc34)n2C)no1	1%
-0.5%	0	-4%	Cn1c(CN2CCOCC2)nnc1SCC(=O)NC1CCCCC1	-10%
1.5%	-2	-9%	CC(c1ccccn1)N(CCN(C)C)C(=S)Nc1ccccc1F (centres undefined)	-2%
3.2%	9	2%	Cc1cccc(C(=O)N(c2ccccn2)C(C)c2ccco2)c1 (centres undefined)	-7%
-0.7%	-1	6%	O=C(Nc1ccc2c(c1)OCO2)Nc1ccc(Br)cn1	-49%
3.5%	·	-6%	O=C1c2ccccc2C(=O)N1CCC#Cc1ccc2cc(C3(O)CCCCC3)oc(=O)c2c1	·
1.2%	·	1%	CCN(C[C@H]1N[C@@](CC)(C(=O)OC)[C@H]2C(=O)N(C)C(=O)[C@@H]12)C(=O)C1CCCCC1	·
-1.6%	·	-1%	Cc1c(C)c2ccc(OCC(=O)Nc3ccc(N4CCC(C)CC4)cc3)cc2oc1=O	0%

Remaining list, next part
Rango-impB inh	GLA inh pH 4.5	Rango dissoc inh	SMILES	miR-21 FLuc
-0.6%	15	-12%	O=C(NC1CCCC1)C1CC(=O)N(CCc2ccccc2)C1 (centres undefined)	-4%
-3.6%	-7	-4%	CN(c1ccc(C(=O)Nc2ccccn2)cc1)S(=O)(=O)c1ccccc1	-20%
-0.4%	·	26%	O=C(c1cncc(Br)c1)N1CCN(S(=O)(=O)c2ccccc2)CC1	4%
1.6%	2	-5%	O=S(=O)(Nc1cccc(C(F)(F)F)c1)c1cccnc1	-26%
-1.3%	3	-2%	NS(=O)(=O)c1cccc(NS(=O)(=O)c2ccc(/C=C/C(=O)OCC(=O)c3ccccc3)cc2)c1	-3%
-0.9%	2	12%	Cc1ccc(C(=O)N/C(=C/c2ccco2)C(=O)O)cc1	-2%
3.1%	4	-6%	COc1ccccc1NC(=O)N1CCN(c2ccc(F)cc2)CC1	-12%
0.6%	·	9%	Clc1ccc(-c2ccc(CN3CCCCC3)o2)cc1	-35%
-4.7%	5	5%	COc1ccc(NC(=O)NC23CC4(C)CC(C)(CC(C)(C4)C2)C3)cc1	-6%
4.5%	·	2%	Cc1cc(OC(=O)c2ccc(C)c(C)c2)c([N+](=O)[O-])c(=O)[nH]1	0%
2.2%	-5	9%	Cc1cc(OC(=O)c2ccco2)c(Sc2ccccc2[N+](=O)[O-])c(=O)o1	-1%
-4.9%	·	3%	O=S(=O)(NCc1ccc(Cl)cc1)NCc1ccc(Cl)cc1	-4%
4.8%	·	-2%	CCN1C[C@@H]2[C@@H]3C(=O)N(C)C(=O)[C@@H]3[C@](CC)(C1=O)N2C(=O)c1ccccc1	·
-3.0%	-3	-6%	C/C(=N\Nc1nc(-c2ccccn2)nc2ccccc12)c1ccc(F)cc1	2%
-1.1%	-6	-19%	O=C(CCc1ccccc1)NC(NC(=S)Nc1ccc(Cl)cc1)C(Cl)(Cl)Cl (centres undefined)	24%
-2.9%	2	10%	O=C(Cn1cnc2c(cnn2-c2ccccc2Cl)c1=O)N1CCc2ccccc21	-3%
-0.2%	4	-14%	CCC(CC)c1nnc(NC(=O)[C@@H](NC(=O)c2cccc(C)c2)C(C)C)s1	-5%
-4.6%	-2	-7%	O=C(OCc1ccccc1F)c1ccc2c(c1)OCCO2	-75%
-0.7%	·	?	Cc1cc(C)c(C(=O)c2ccc(C(=O)N3CCCCC3)cc2)c(C)c1	2%
?	·	-7%	COc1cccc2cc(-c3cn4ccc(C)cc4n3)c(=O)oc12	·

More compounds follow:
Rango-impB inh	GLA inh pH 4.5	Rango dissoc inh	SMILES	miR-21 FLuc
0.8%	3	3%	COc1ccc(-c2ccc(=O)n(CC(=O)Nc3ccc(C(=O)NC4CC4)cc3)n2)cc1OC	-14%
-0.7%	-3	0%	O=C(c1ccccc1)N1CCN(c2ccccc2F)CC1	-20%
1.4%	1	0%	O=C(CNC(=O)c1cccs1)c1ccc([N+](=O)[O-])cc1	-41%
-0.1%	-22	0%	O=S(=O)(Cc1cc(Cl)nc(-c2ccncc2)n1)c1ccccc1	7%
-0.5%	·	-1%	C/C(CC(=O)Nc1ccc(N(C)C)cc1)=N\NC(=O)c1ccccc1F	-49%
0.0%	·	-5%	O=C(Cc1ccc(S(=O)(=O)N2CCOCC2)s1)Nc1ccc(S(=O)(=O)N2CCCCC2)cc1	·
-3.3%	-8	1%	CCOC(=O)C1(CCOC)CCN(C(=O)c2ccccc2-c2cccc(C)c2)CC1	-1%
-1.6%	·	-6%	Cc1cc(Br)ccc1NS(=O)(=O)c1c(C)[nH]c(=O)[nH]c1=O	3%
4.1%	5	4%	O=C(COc1ccccc1)NCc1ccc(-n2cccc2)cc1	-1%
5.1%	-23	5%	Cn1c(Cn2cnc3ccccc32)nnc1SCC(=O)CC(=O)Nc1ccccc1	-7%
·	2	·	CC(Cc1ccccc1)(NC(=O)CN)c1ccccc1 (centres undefined)	-4%
-1.0%	0	13%	Cc1cccc(N2CCN(C(=O)C3CCN(S(=O)(=O)c4cccnc4)CC3)CC2)c1C	-1%
?	1	?	Nc1c(C(=O)Nc2ccccc2)sc2nc3c(c(-c4ccco4)c12)CCC3	-25%
0.1%	5	-6%	COc1ccc(NC(C)=O)cc1NC(=O)CSc1nc2ncccc2[nH]1	5%
-0.4%	-8	23%	CCO[C@@H]1OC(C(=O)NC2CC2)=C[C@H](C)[C@H]1CCCO	4%
4.3%	·	22%	CN1C(=O)C(C)(C)c2cc(S(=O)(=O)NCc3ccc(Cl)cc3)ccc21	0%
-0.8%	·	0%	Cc1ccc(NC(=O)OC(C)N2CCCCC2)cc1NC(=O)OC(C)N1CCCCC1 (centres undefined)	·
-1.8%	10	-13%	Cc1csc(NC(=O)C2CCCN2C(=O)OCC(C)C)n1 (centres undefined)	-1%
2.0%	2	11%	c1cncc(CNc2ncnc3ccc(-c4cccnc4)cc23)c1	·
-3.5%	2	0%	O=C(Nc1cccc(F)c1)N1CC=C(c2ccc(Cl)cc2)CC1	-17%

The list goes on:
Rango-impB inh	GLA inh pH 4.5	Rango dissoc inh	SMILES	miR-21 FLuc
-3.6%	2	14%	Cn1cnc2c1c(=O)n(Cc1cccc(Br)c1)c(=O)n2C	-2%
-3.4%	·	-2%	CC(=O)c1ccc(S(=O)(=O)NCCC(=O)OCC(=O)N2CCCC2=O)cc1	·
-1.0%	-7	-15%	O=C(c1ccc2c(c1)N(Cc1cccc(Cl)c1)C(=O)c1ccccc1S2(=O)=O)N1CCN(c2ccccn2)CC1	27%
0.6%	·	-12%	CN(CC(=O)Nc1c(Cl)cccc1Cl)C(=O)CC1OC(=O)c2ccccc21 (centres undefined)	·
0.1%	·	4%	CCOC(=O)c1cnc2c(Cl)cccc2c1NCCCN1CCOCC1	-16%
1.8%	·	7%	CSc1cccc(NC(=S)N2CCC(c3ccccc3)C2)c1 (centres undefined)	-37%
-4.3%	-1	8%	O=C(c1c[nH]c2ccc(F)cc2c1=O)N1CCCCCC1	-4%
?	·	?	Cc1ccccc1NC(=O)NNC(=O)c1ccc2ccccc2c1O	-1%
-2.6%	·	-6%	COC(=O)c1ccccc1S(=O)(=O)N1CCC(C(=O)NCC2CCCO2)CC1 (centres undefined)	·
?	-2	-2%	CCOC(=O)c1cc(CC)sc1N1C(=O)CC(Sc2ncccc2C(=O)O)C1=O (centres undefined)	-3%
6.7%	·	-1%	O=C(O)C(Cc1ccccc1)N1C(=O)c2c(Cl)c(Cl)c(Cl)c(Cl)c2C1=O (centres undefined)	·
